VDR inh: blocks the human vitamin D receptor | 400,000 compounds, 0.93% hits | AID 504847 | P11473 | VDR-SRC2-3 peptide fluorescence polarization, 2 h | Potency, µM, inactives show max response, negative = inhibition, usual class: inhibitors; active = well fitted inhibition curve with a large enough effect; inconclusive = small, poorly fitted or top-dose-only effect, or another doubt; inactive = no such curve, though single readings can be large or run the other way; also: series mostly up to about 120 µM
Target sequence (P11473 whole entry, looked up): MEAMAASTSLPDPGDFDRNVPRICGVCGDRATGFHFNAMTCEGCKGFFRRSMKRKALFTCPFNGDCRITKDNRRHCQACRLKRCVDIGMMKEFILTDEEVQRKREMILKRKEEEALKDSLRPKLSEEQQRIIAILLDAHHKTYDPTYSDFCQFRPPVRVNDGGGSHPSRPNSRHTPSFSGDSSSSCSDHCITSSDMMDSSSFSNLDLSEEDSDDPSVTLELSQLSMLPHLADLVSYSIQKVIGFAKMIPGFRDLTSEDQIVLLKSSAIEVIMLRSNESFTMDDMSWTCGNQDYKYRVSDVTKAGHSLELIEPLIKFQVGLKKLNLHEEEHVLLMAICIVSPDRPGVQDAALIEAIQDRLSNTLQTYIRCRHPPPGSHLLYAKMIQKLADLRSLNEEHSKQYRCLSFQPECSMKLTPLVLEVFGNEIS
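Signal is fluorescence polarization, reporting how far test compounds block the interaction of VDR with the SRC2-3 coregulator peptide after a 2 h room-temperature incubation.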
* marks the source's active call; other numbers are inactive results; u = inconclusive. % is scaled to controls: 0 for no effect and ±100 for the full control effect; potency is read from the fitted curve at half-maximal effect.

VDR inh | SMILES
3% | CCCn1c2ccccc2c2cnn(CC(=O)NC3CCCCC3C)c(=O)c21 (stereo not drawn)
-20% | CN(C(=O)CN1C(=O)S/C(=C\c2cccc(Cl)c2)C1=O)C1CCS(=O)(=O)C1 (stereo not drawn)
-15% | O=[N+]([O-])c1ccc(CSc2nnc(Cc3ccccc3)n2-c2ccc(F)cc2)cc1
25µM* | Cn1cnc([N+](=O)[O-])c1S(=O)(=O)Oc1ccc(Cl)cc1
-4% | O=C(Cc1ccccc1)Nc1sc2c(c1C(=O)Nc1ccccc1Cl)CCC2
2% | C/C(=N\OCC(=O)Nc1ccc2c(c1)OCCO2)c1ccc2c(c1)OCCO2
-2% | O=S(=O)(c1ccc(F)cc1)N1CCCNCC1
2% | CCOC(=O)n1c(=O)n(Cc2cccc(F)c2)c2ccccc21
-3% | CCOC(=O)c1c(C)nc2c(c1-c1ccc(OC)c(OC)c1)C(=O)c1ccccc1-2
-5% | CCOc1ccc(C(=O)c2cn(Cc3ccccc3OC)c3cc4c(cc3c2=O)OCCO4)cc1
6% | Cc1cccc(C(=O)NNC(=O)c2ccccc2[N+](=O)[O-])c1
-27% | C1=C(c2ccccc2)CCN(c2ncnc3nc[nH]c23)C1
-12% | O=C(CN1C(=O)COc2ccc(S(=O)(=O)N3CCCCCC3)cc21)N1CCN(c2ccc(Cl)cc2)CC1
u | CCN(C(=O)COC(=O)c1ccc(OCc2c(C)noc2C)cc1)c1ccccc1
-18% | FC(F)Oc1ccc(NC(=S)NCc2ccco2)cc1Cl
12% | COc1ccc2cc3c(N)nn(C(=O)c4cccc([N+](=O)[O-])c4)c3nc2c1
-11% | CCc1nnc(NC(=O)CN2CCN(Cc3ccc(F)cc3)CC2)s1
6% | Cc1cc(-c2nnc(CCC(=O)NC(c3ccccc3)c3ccccc3)o2)no1
-7% | Cc1ccc(S(=O)(=O)N(C)C)cc1NC(=O)CCCNC(=O)c1ccc(Cl)cc1
-2% | O=C1C2C3C=CC(CC3)C2C(=O)N1/N=C/c1c(O)ccc2ccccc12 (stereo not drawn)
6% | CCOCCCNC(=O)c1ccc(C2SCC(=O)N2Cc2ccccc2)cc1 (stereo not drawn)
-8% | CCn1c(C(=O)N2CCC(C(=O)NCCc3ccc(C)cc3)CC2)cc2sccc21
-2% | CN(C(=O)C1CCCN(S(=O)(=O)c2cccc([N+](=O)[O-])c2)C1)C1CCS(=O)(=O)C1 (stereo not drawn)
-6% | COc1ccc(S(=O)(=O)N2CCN(C(=O)/C=C/c3ccco3)CC2)cc1
29% | COc1cc(NC(=O)Cn2ccsc2=N)c(C)cc1[N+](=O)[O-]

Continued.
VDR inh | SMILES
-2% | CN(C)CCN(C(=O)c1cccc2ccccc12)c1nc2cc3c(cc2s1)OCO3
-4% | COc1ccc(C)c2sc(N(CCCN(C)C)C(=O)c3ccc4c(c3)OCCO4)nc12
11% | CCn1c(=O)c(=O)n(CC)c2cc(N3CCCCC3)c(NC(=O)c3ccc(OC)c(OC)c3)cc21
9% | CSc1ncc(CO)n1Cc1ccccc1
9% | CC1CC(c2ccccc2)n2nc(NC(=O)c3ccco3)nc2N1 (stereo not drawn)
-8% | O=C(COC(=O)C12CC3CC(CC(C3)C1)C2)N1CCN(S(=O)(=O)c2ccccc2)CC1
-25% | O=C(O)c1ccccc1C(=O)Nc1ccc(S(=O)(=O)NC2CCCCC2)cc1
0% | COc1ccccc1NC(=O)N1CCCC1C(=O)NC1CCCCC1 (stereo not drawn)
-15% | Cc1ccc(N(CC(=O)Nc2cccc(Cl)c2C)S(=O)(=O)c2c(C)noc2C)cc1
79µM* | COc1ccc(NC(=O)CCCS(=O)(=O)c2nc(-c3ccc(OC)c(OC)c3)cc(C(F)(F)F)n2)cc1OC
8% | CCn1c(C)cc(/C=C2\NC(=O)N(Cc3ccc(Cl)cc3)C2=O)c1C
15% | COc1ccc(C(=O)NCCc2cc3ccc(C)c(C)c3[nH]c2=O)cc1OC
13% | COc1ccccc1OCC(=O)N(Cc1ccc(Cl)cc1)CC1CCCO1 (stereo not drawn)
5% | CN(C(=O)COC(=O)CNS(=O)(=O)/C=C/c1ccccc1)C1CCS(=O)(=O)C1 (stereo not drawn)
1% | COC(=O)C1=C(C)NC(=O)NC1c1ccccc1Cl (stereo not drawn)
11% | CC(C)n1cnnc1SCC(=O)Nc1ccc(N2CCCCC2)cc1
-14% | C/C(=N\N(c1ccccc1)c1ccccc1)c1ccc(N)cc1
-7% | COc1ccc(NS(=O)(=O)c2ccc(C)c(NC(=O)CNC(=O)c3ccco3)c2)cc1
5% | CCC(=O)Nc1ccccc1C(=O)OCC(=O)Nc1ccc(S(N)(=O)=O)cc1
-3% | CC(Sc1nc(N)c(NC(=O)c2ccc(Br)o2)c(=O)[nH]1)C(=O)O (stereo not drawn)
-8% | CCOc1ccccc1NS(=O)(=O)c1cnc(N)nc1
-17% | Cc1sc(NC(=O)c2cccnc2)nc1-c1ccccc1
-15% | CCOC(=O)CSc1nnc(CNC(=O)c2cccc(C)c2)n1C
-11% | CCc1nccn1CCC(=O)N1CCCC(N2CCN(c3ccccc3F)CC2)C1 (stereo not drawn)
u | COc1ccc(-c2csc3[nH]c(=S)n(-c4ccccc4)c(=O)c23)cc1OC

Gathered by group, those above containing a COOH group
VDR inh | SMILES
-25% | O=C(O)c1ccccc1C(=O)Nc1ccc(S(=O)(=O)NC2CCCCC2)cc1
-3% | CC(Sc1nc(N)c(NC(=O)c2ccc(Br)o2)c(=O)[nH]1)C(=O)O (stereo not drawn)

Going on with the list.
VDR inh | SMILES
-4% | COc1ccc(S(=O)(=O)N2CCC(C(=O)Nc3nccs3)CC2)cc1
-2% | CCCCCC(=O)Nc1cc(N(C)C)nc2ccccc12
9% | CC(C)OCCCNC(=O)CN1C(=O)CC(C)(C)S(=O)(=O)c2ccccc21
-11% | N#C/C(=C\c1ccccc1)C(=O)NCCN1CCOCC1
-13% | O=C(Nc1nccs1)C1CC(=O)N(c2ccccc2)C1 (stereo not drawn)
-14% | CCC(C)NC(=O)c1ccc(NC(=O)CC2SC(N3CCCCC3)=NC2=O)cc1 (stereo not drawn)
4% | O=C(NCCc1ccccc1)c1ccc(CSc2nc3ccncc3n2Cc2ccc(F)cc2)cc1
-3% | Cc1cc(-c2nnnn2-c2ccc(C(F)(F)F)cc2)no1
4% | CCOC(=O)C1CCN(C(=O)CCS(=O)(=O)c2ccc3c(c2)CC(C)N3C(=O)CC)CC1 (stereo not drawn)
-2% | CCn1c(C(C)NC(=O)c2ccc(C)cc2)n[nH]c1=S (stereo not drawn)
0% | Cc1nc2ccccc2n1S(=O)(=O)N(C)C
0% | Cc1ccccc1CN(C)C(=O)CNC(=O)c1ccc2ccccc2c1
-10% | COC(=O)CNC(c1ccccc1)c1cc(Br)ccc1NS(=O)(=O)c1ccccc1 (stereo not drawn)
2% | CC(C)NC(=O)C(=O)Nc1cc2c3c(c1)C(C)C(=O)N3CCC2 (stereo not drawn)
17% | COc1c(C)cc(C(=O)C2CCCN(C(=O)Cn3ccc(C)n3)C2)cc1C (stereo not drawn)
-12% | C/C(CC(=O)NCc1ccco1)=N\NC(=O)C(c1ccccc1)c1ccccc1
-13% | CC1(C)CC(=O)C=C(NCc2ccc(C(=O)O)cc2)C1
-29% | COc1ccc(C(=O)Oc2c(Sc3ccccc3)c(C)nn2-c2ccccc2)cc1OC
22% | Cc1cc(Br)ccc1NC(=O)CN(C)C(=O)c1ccc(-n2cncn2)c([N+](=O)[O-])c1
-14% | CC(C)N1C(=O)C2ON(c3ccccc3)C(c3cccs3)C2C1=O (stereo not drawn)
11% | [O-][n+]1ccccc1/C=C/c1ccccc1
4% | COc1ccc(NC(=O)N2CCCC3(CCN(C(=O)c4csnn4)CC3)C2)cc1
10% | CCCCCC(=O)Nc1ccc(S(=O)(=O)NC2=NCCCCC2)cc1
-8% | CCN(C(=O)Cn1ncc2c(=O)oc3ccc(C)cc3c21)c1cc(OC)ccc1OC
-7% | CN(Cc1ccno1)Cc1cn(C)nc1-c1ccc(Oc2ccccc2)cc1

Grouped by structure, the entries above with a thiophene ring, fused or not (4)
VDR inh | SMILES
-4% | O=C(Cc1ccccc1)Nc1sc2c(c1C(=O)Nc1ccccc1Cl)CCC2
-8% | CCn1c(C(=O)N2CCC(C(=O)NCCc3ccc(C)cc3)CC2)cc2sccc21
u | COc1ccc(-c2csc3[nH]c(=S)n(-c4ccccc4)c(=O)c23)cc1OC
-14% | CC(C)N1C(=O)C2ON(c3ccccc3)C(c3cccs3)C2C1=O (stereo not drawn)

The listing picks up, starting 7 compounds before the break.
VDR inh | SMILES
22% | Cc1cc(Br)ccc1NC(=O)CN(C)C(=O)c1ccc(-n2cncn2)c([N+](=O)[O-])c1
-14% | CC(C)N1C(=O)C2ON(c3ccccc3)C(c3cccs3)C2C1=O (stereo not drawn)
11% | [O-][n+]1ccccc1/C=C/c1ccccc1
4% | COc1ccc(NC(=O)N2CCCC3(CCN(C(=O)c4csnn4)CC3)C2)cc1
10% | CCCCCC(=O)Nc1ccc(S(=O)(=O)NC2=NCCCCC2)cc1
-8% | CCN(C(=O)Cn1ncc2c(=O)oc3ccc(C)cc3c21)c1cc(OC)ccc1OC
-7% | CN(Cc1ccno1)Cc1cn(C)nc1-c1ccc(Oc2ccccc2)cc1
-21% | CCCCCn1nc(C(=O)N(CCOC)c2c(N)n(CCCC)c(=O)[nH]c2=O)c2ccccc2c1=O
-16% | Cc1cc(C)n(CCc2nc3c4ccccc4nc(N4CCN(c5ccccc5F)CC4)n3n2)n1
-9% | COc1ccc(-c2oc3ccccc3c2C(=O)OCc2ccc([N+](=O)[O-])cc2)cc1
2% | CC1CCCC(NC(=O)c2cccc(S(=O)(=O)N3CCN(c4ccccc4)CC3)c2)C1C (stereo not drawn)
13% | CCOC(=O)c1cnn(-c2ccccc2)c1-n1cccc1C(=O)C(=O)Nc1ccc(OC)cc1
2% | Cn1/c(=N/NC(=O)c2ccccc2Br)sc2ccccc21
-14% | Cc1cnc(CN(C)C(=O)C2CCC(=O)N(CCc3cccc(F)c3)C2)[nH]1 (stereo not drawn)
1% | O=C(COC(=O)c1ccc(F)cc1F)NCc1ccc2c(c1)OCO2
u | O=C(Nc1cc(S(=O)(=O)Nc2ccc(Cl)cc2)ccc1N1CCCCC1)c1ccc(F)cc1
-23% | Cc1cc2nc(/C=C/c3nc4cc(C)c(C)cc4[nH]3)[nH]c2cc1C
-15% | CCOC(=O)C1=C(C)NC(=O)NC1c1ccc([N+](=O)[O-])o1 (stereo not drawn)
11% | COc1ccc(N2C(=O)CC(SCCc3nc4ccccc4[nH]3)C2=O)cc1 (stereo not drawn)
3% | CCOC(=O)c1[nH]c2ccccc2c1NC(=O)c1cc(Cl)ccc1Cl
4% | COc1ccc(CCN(C(=O)C(F)(F)F)C(C(=O)NC2CCCC2)c2cccs2)cc1OC (stereo not drawn)
-16% | CC(C)(C)c1cc(C(C)(C)C)cc(S(=O)(=O)CCc2ccccn2)c1
-2% | CC(=O)Nc1ccc(-c2csc(NC(=O)C3CC(=O)N(c4ccc5c(c4)OCCO5)C3)n2)cc1 (stereo not drawn)
-4% | COc1ccc(-c2noc(CNC(=O)c3cc(OC)c(OC)c(OC)c3)n2)cc1
11% | COc1ccccc1NC(=O)N1CCC(c2nc3cc(C)c(C)cc3[nH]2)CC1
-10% | CN(CC(=O)NCc1ccncc1)S(=O)(=O)c1ccc(Br)cc1
-12% | Cc1noc(/C=C/N(C)C)c1S(=O)(=O)N1CCN(c2ccc(F)cc2)CC1
u | CCCCC(=Nc1ccc(N)cc1)C1=C(O)C(C(=O)OC)C(C)(C)CC1=O (stereo not drawn)
-15% | Cc1[nH]n(-c2cccc(Cl)c2)c(=O)c1-c1ccc(Cl)cc1
14% | COc1cc(OC)c(NC(=O)NCc2cccn2Cc2ccccc2)cc1Cl
3% | O=C(N/N=C/c1c[nH]c2ccccc12)c1ccn(Cc2ccc(Cl)cc2)n1
-1% | COc1ccc(CNC(=O)COc2ccccc2C(=O)c2cnn(-c3ccccc3)c2)cc1OC

More records follow.
VDR inh | SMILES
-12% | Cc1ccc(C(NC(=O)c2ccccc2)C(Cl)(Cl)Cl)cc1 (stereo not drawn)
-2% | CS(=O)(=O)N1CCN(c2ccc(NC(=O)Cc3ccccc3)cc2)CC1
8% | CCN1C(=O)/C(=C/c2ccc(C)s2)SC1=Nc1ccc(OC)cc1
-14% | COC(=O)c1c(C)oc2ccc(N(C(=O)Oc3ccccc3)S(=O)(=O)c3ccc(Cl)c([N+](=O)[O-])c3)cc12
-11% | Cc1ccc2c(COC(=O)CNC(=O)c3ccco3)cc(=O)oc2c1C
8% | O=C(Nc1ccc(Cl)cc1F)c1cc(S(=O)(=O)NCc2ccc3c(c2)OCO3)ccc1F
-7% | CCCCCC1CC(=O)N(Cc2ccc(Cl)cc2)C(=O)N1 (stereo not drawn)
-1% | Cc1nn(C)c(C)c1CN(C)C(=O)c1nn2c(c1Br)NC(c1cccs1)CC2C(F)(F)F (stereo not drawn)
10% | CCn1c(COc2ccccc2)nnc1SCC(=O)Nc1ccc2c(c1)OCCO2
-2% | Cc1cccc(N=Cc2cc3c(cc2[N+](=O)[O-])OCO3)c1
-2% | COc1ccc(-c2cc(C(=O)Nc3cnn(Cc4ccccc4C)c3)no2)cc1OC
1% | COc1ccc(Oc2ncc3nc(-c4cccs4)c(=O)n(Cc4cccc(OC)c4)c3n2)cc1
12% | COc1cc(NC(=O)CN2CCCN(Cc3cccc(F)c3)S2(=O)=O)cc(OC)c1
-3% | O=C(/C=C/c1ccccc1)N1CCN(C(=O)c2ccco2)CC1
0% | COc1cc(CCN2C(=O)c3cccc4cccc(c34)C2=O)c(S(=O)(=O)NCCCO)cc1OC
-5% | COc1ccccc1N1CCN(C(=O)c2oc3ccccc3c2N)CC1
-6% | Cn1c(=O)[nH]c(=O)c2c1nc(N(CCO)Cc1ccccc1)n2CCCc1ccccc1
-4% | COc1cc(CN2CCCC(N3CCN(c4ccccc4C)CC3)C2)cc(Cl)c1O (stereo not drawn)

Only part of the results is shown; rates above refer to the full screens.
